# Screening results from PubChem BioAssay.
# miR-21 reporter: qHTS Assay for Modulators of miRNAs and/orActivators of miR-21. HeLa miR-21 FLuc reporter, luciferase, 48 h. Potency, µM (series often up to 38.3 µM), inactives show at the top dose reporter change, positive = more light. 340,000 tested, under 10 active; active = well fitted rising curve with a large enough effect; inconclusive = small, poorly fitted or top-dose-only effect; inactive = no such curve, though single readings can be large or run the other way;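 note: % of control where 0% means no effect; miR-21 action dims this reporter so a rising signal means less miR-21 action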
#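 Using DMEM plus 10% FBS, HeLa miR-21-FLuc cells are incubated with test compounds (final up to about 40uM) for 48 hours; firefly luciferase signal is then imaged following reagent-mediated lysis.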
# * marks the source's active call; other numbers are inactive results; ? = inconclusive.
SMILES,miR-21 reporter
COc1ccc(OC)c(NC(=O)CSc2ccc(-c3sc(C)nc3C)nn2)c1,2%
COc1ccccc1NC(=O)CN1C(=O)C(c2ccc(F)cc2)=NC1(C)C,7%
Cc1ccc(C(=O)c2oc3ccccc3c2NC(=O)COc2ccccc2C)cc1,0%
COc1cc(NC(=O)c2cc(S(=O)(=O)N3CCC(C)CC3)cn2C)cc(OC)c1OC,1%
COC(=O)c1ccc(OCC2c3cc(OC)c(OC)cc3CCN2C(=O)COc2ccc(Cl)cc2)cc1 (stereo not drawn),18%
COCCCN1C(=O)c2ccccc2CC1(C)C(=O)NC1CCCCC1 (stereo not drawn),-1%
Cc1ccc(C)c(NC(=O)C(NS(=O)(=O)c2ccc3c(c2)CCC(=O)N3)c2ccccc2)c1 (stereo not drawn),21%
CCOc1ccccc1CNC(=O)c1cnc2sc(N3CCC(C)CC3)nn2c1=O,-5%
Cc1cc(C)cc(C(=O)Nc2c3c(nn2-c2ccccc2C)CS(=O)(=O)C3)c1,-2%
COc1ccc(-c2nc(SCC(=O)NCCc3ccccc3)n[nH]2)cc1,0%
CCS(=O)(=O)N1CCc2cc(C(=O)Nc3ccc(Br)cc3F)ccc21,-28%
Fc1ccccc1N1CCN(c2ncnc3c2nc2n3CCCCC2)CC1,-2%
CCN1CCN(c2cc(C)c3cc(NC(=O)/C=C/c4cccc(Cl)c4)ccc3n2)CC1,61%
O=c1c2cnn(-c3ccc(Cl)cc3)c2ncn1Cc1ccc(Cl)cc1Cl,3%
CN1CCN(C(=O)c2ccc3c(c2)N(Cc2ccc(Cl)cc2)C(=O)c2ccccc2S3(=O)=O)CC1,1%
CCOc1ccc(C(=O)N2CC(=O)Nc3ccc(F)cc3C2c2ccc(F)cc2)cc1 (stereo not drawn),9%
CCOC(=O)c1ccc(NC(=O)C2CC(=O)NC(=Nc3ccc(C)c(C)c3)S2)cc1 (stereo not drawn),2%
O=C(CSc1c2c(nc3cc(Cl)ccc13)CCCC2)N1CCN(c2ccccc2)CC1,?
CCc1ccc(-c2cn3c(n2)sc2cc(C(=O)NCCC4=CCCCC4)ccc23)cc1,2%
Cc1ccc(OCC(=O)Nc2ccc3c(c2)sc(=O)n3C)cc1,0%

# Fetched one by one from the list above, 5 records:
SMILES,miR-21 reporter
CCOC(=O)c1ccc(NC(=O)C2CC(=O)NC(=Nc3ccc(C)c(C)c3)S2)cc1 (stereo not drawn),2%
CCc1ccc(-c2cn3c(n2)sc2cc(C(=O)NCCC4=CCCCC4)ccc23)cc1,2%
CCS(=O)(=O)N1CCc2cc(C(=O)Nc3ccc(Br)cc3F)ccc21,-28%
CCN1CCN(c2cc(C)c3cc(NC(=O)/C=C/c4cccc(Cl)c4)ccc3n2)CC1,61%
Cc1ccc(OCC(=O)Nc2ccc3c(c2)sc(=O)n3C)cc1,0%

# More compounds follow.
SMILES,miR-21 reporter
CC(C)Cc1nn2c(=O)cc(COC(=O)c3cccc(NS(C)(=O)=O)c3)nc2s1,-6%
Cc1cc(C)cc(N2CC(c3nc(-c4cccc(Cl)c4)no3)CC2=O)c1 (stereo not drawn),2%
CCc1cccc(NC(=O)C2CCC(CNS(=O)(=O)c3ccc(Br)s3)CC2)c1 (stereo not drawn),2%
CC1CCN(CC2CCN(C(=O)Nc3ccc(Br)cc3F)CC2)CC1,-1%
CC(C)CSc1ccccc1NC(=O)c1sc2nc(-c3ccncc3)ccc2c1N,-1%
CCN(CC)S(=O)(=O)c1ccc2oc(C(=O)NCc3ccccc3OC)c(C)c2c1,?
Cc1ccc(-c2nc3ccccn3c2Nc2c(C)cccc2C)o1,?
CCn1c(CC2C(=O)N(C)c3ccc(Br)cc32)nc2ccccc2c1=O (stereo not drawn),?
CCN(CC)C(=O)CSc1nc2ccsc2c(=O)n1Cc1ccccc1Cl,9%
Cc1ccc(NC(=O)Cc2c(C(=O)O)c(C)cn2C)cc1Cl,-4%
O=c1c2cccnc2n(Cc2cccc(F)c2)c(=O)n1Cc1ccccc1Cl,-6%
COc1cc(C2c3c(oc4ccc(C)cc4c3=O)C(=O)N2Cc2ccccc2)ccc1O (stereo not drawn),0%
CCCCOc1cccc(C(=O)N(Cc2ccc(C)o2)c2ccccn2)c1,22%
CCOC(=O)c1c(Nc2cc(C)cc(C)c2)nnc(-c2ccccc2)c1-c1ccccc1,17%
CCn1cc(C(=O)N2CCN(c3cccc(C(F)(F)F)c3)CC2)c2cc(OC)c(OC)cc2c1=O,-1%
Cc1cc(OCC(=O)NCC2(N3CCOCC3)CCCCC2)ccc1Cl,12%
Cc1cc(=O)n(CC(=O)NCCC(C)C)c2c1c(C)nn2C,-1%
O=C(CCNS(=O)(=O)c1cccc2nsnc12)Nc1ccc(F)cc1,3%
COc1ccc2c(Sc3ccc(Cl)cc3)c(C(=O)N3CCC(C)CC3)[nH]c2c1,20%
Cc1ccc(-n2c(=O)c3cccnc3n2CC(=O)Nc2cccc(C)c2C)cc1,2%
CC(=O)N1CCc2c(sc3c2c(=O)n(-c2ccccc2C)c(=O)n3Cc2cccc(F)c2)C1,-15%
CCN(CC)CCNC(=O)c1c(C)oc2ncnc(N3CCOCC3)c12,0%
COc1ccc2c(c1)c(=O)c(S(=O)(=O)c1ccc(Cl)cc1)cn2C,-1%
O=C(CC1(O)C(=O)N(Cc2ccccc2)c2ccc(Br)cc21)c1ccccc1 (stereo not drawn),?
Cc1ccc(CN(Cc2ccco2)c2cnc(S(C)(=O)=O)nc2C(=O)Nc2ccc(Br)cc2)o1,-9%
Cn1cc(S(=O)(=O)c2ccc(Cl)cc2)c(=O)c2cc(F)c(N3CCCC3)cc21,-1%
COc1nnc(-c2ccc(N3CCCCC3)c(NC(=O)c3ccc(C)cc3)c2)c2ccccc12,2%
CCN1CCc2c(sc(NC(=O)c3ccc(S(=O)(=O)N(CCOC)CCOC)cc3)c2C(N)=O)C1,0%
CCCOC(=O)c1ccc(Nc2c(C(=O)OCC)cnc3c(C)cc(Cl)cc23)cc1,-6%
Cc1ccc(-c2nn3c(C)nnc3c3ccccc23)cc1S(=O)(=O)NCC(C)O (stereo not drawn),-14%
CC1=C(C(=O)Nc2ccccc2)C(c2ccccn2)n2nc(SCc3ccccc3Cl)nc2N1 (stereo not drawn),-7%
O=C(COc1ccccc1)Nc1ccc(S(=O)(=O)N(Cc2ccccc2)c2ccccc2)cc1,-4%
COc1ccc(NC(=O)C2CCN(S(=O)(=O)c3ccc4[nH]c5c(c4c3)CCCCC5)CC2)cc1,0%
COc1ccc(CNC(=O)Cn2c(SCC(=O)Nc3ccc(OC)cc3)nc3ccccc32)cc1,-18%
Cc1cccc(-c2nc(C(N)=O)c3c(n2)n(-c2ccc4c(c2)OCO4)c(=O)n3C)c1,-1%
NC(=O)C1CCN(C(=O)c2ccccc2NC(=O)c2nsc3ccccc23)CC1,-19%
COc1ccccc1CNC(=O)COCc1cc(-c2ccc3c(c2)OCO3)on1,-14%
COc1ccc(OCC(=O)Nc2ccccc2C(=O)OCc2cc(=O)n3nc(C)sc3n2)cc1,-1%
COc1ccc(S(=O)(=O)NCc2nc(-c3ccccc3)no2)cc1,0%
COc1cc(-c2noc(CCC(=O)Nc3cc(C)ccc3C)n2)cc(OC)c1OC,14%
O=c1c2ccccc2nc(-c2ccc(Cl)cc2)n1CCCOc1ccccc1F,0%
Cc1ccc(NC(=O)C2CCCN(S(=O)(=O)c3ccc4c(c3)CCCC(=O)N4)C2)cc1Cl (stereo not drawn),30%
O=C(Nc1nc2n(n1)C(c1ccc(F)cc1)C=C(c1ccccc1)N2)c1ccc(Cl)cc1 (stereo not drawn),-3%
Fc1ccc(C(c2nnc(-c3ccccc3)o2)N2CCN(c3ccccc3)CC2)c(Cl)c1 (stereo not drawn),12%
COc1ccccc1C(=O)Nc1cc2c(cc1N1CCCC1)n(C)c(=O)c(=O)n2C,0%
Cc1cccc(NC(=O)CSc2nc(=O)n(CCN3CCOCC3)c3c2CCC3)c1,-1%
CCN1C(=O)c2ccccc2Sc2ccc(NC(=O)c3ccc(C#N)cc3)cc21,-2%
CCN1CCN(CCCNC(=O)c2ccc3c(c2)sc2nc(-c4ccc(OC)cc4)cn23)CC1,-16%
COc1ccc(N(Cc2cccs2)C(=O)COc2cc(C)c(Cl)c(C)c2)cc1,8%
N#C/C(=C/c1cn(Cc2ccc(F)cc2)c2ccccc12)C(=O)Nc1cccc(Cl)c1,14%

# Of the compounds above, six have bromine:
SMILES,miR-21 reporter
CCS(=O)(=O)N1CCc2cc(C(=O)Nc3ccc(Br)cc3F)ccc21,-28%
CCc1cccc(NC(=O)C2CCC(CNS(=O)(=O)c3ccc(Br)s3)CC2)c1 (stereo not drawn),2%
CC1CCN(CC2CCN(C(=O)Nc3ccc(Br)cc3F)CC2)CC1,-1%
CCn1c(CC2C(=O)N(C)c3ccc(Br)cc32)nc2ccccc2c1=O (stereo not drawn),?
O=C(CC1(O)C(=O)N(Cc2ccccc2)c2ccc(Br)cc21)c1ccccc1 (stereo not drawn),?
Cc1ccc(CN(Cc2ccco2)c2cnc(S(C)(=O)=O)nc2C(=O)Nc2ccc(Br)cc2)o1,-9%

# The list goes on.
SMILES,miR-21 reporter
Cc1cc(NC(=O)CCNS(=O)(=O)c2cccc3nsnc23)ccc1Br,13%
COc1ccc(C(CNC(=O)COc2cc(C)cc(C)c2)N2CCCCC2)cc1 (stereo not drawn),10%
COc1ccccc1NC(=O)C(=O)NCC(c1cccnc1)N1CCc2ccccc2C1 (stereo not drawn),-6%
O=C(O)c1ccc2nc(-c3cc4cccc(O)c4oc3=O)[nH]c2c1,?
CCN(C(=O)c1ccc2c(=O)n3c(nc2c1)CCCCC3)c1cc(C)ccc1C,0%
O=C(c1ccco1)N1CCN(c2nc3c(Cl)cccc3s2)CC1,-5%
COc1ccc(N2CCN(C(=O)c3cc(S(=O)(=O)N4CCC(C)CC4)cn3C)CC2)cc1,-11%
Cc1nc(S(=O)(=O)N2CCN(c3ccccc3F)CC2)cn1C,-22%
CC(=O)N1c2ccc(S(=O)(=O)NCC3CCC(C(=O)Nc4ccc(C)c(C)c4)CC3)cc2CC1C (stereo not drawn),14%
O=C(CSc1nc2c(oc3ccccc32)c(=O)n1-c1ccccc1F)Nc1ccccc1,0%
COc1cc(Cl)c(C)cc1NC(=O)C1CCN(c2nc3ccccc3n3cccc23)CC1,30%
O=C(NC1CC(=O)N(c2cccc(F)c2)C1)C1CCCC1 (stereo not drawn),-1%
COc1ccc(S(=O)(=O)n2ccnc2)cc1C(C)(C)C,-8%
CCN(CC)c1cc(C)c2cc(NC(=O)c3cccc(OC)c3OC)ccc2n1,?
Oc1ccc(/C=N/Nc2ccc(C(F)(F)F)cn2)c(O)c1,-41%
O=C(NCc1ccccc1Cl)C(=O)NCC(c1ccco1)S(=O)(=O)c1cccs1 (stereo not drawn),-1%
Cc1cc(C)n(-c2nnc(Nc3cc(Cl)ccc3C)c3ccccc23)n1,-6%
CCOC(=O)c1ccc(NC(=O)C2CCN(C(=O)N3CC(C)Oc4ccc(C)cc43)CC2)cc1 (stereo not drawn),1%
COc1ccc2nc(NC(=O)c3nc(SCc4cccc(C)c4)ncc3Cl)sc2c1,-7%
CCN(C(=O)c1sc2nc3n(c(=O)c2c1C)CCCCC3)c1ccc(OC)cc1,-9%

# Of the compounds above, these have a COOH group:
SMILES,miR-21 reporter
Cc1ccc(NC(=O)Cc2c(C(=O)O)c(C)cn2C)cc1Cl,-4%
O=C(O)c1ccc2nc(-c3cc4cccc(O)c4oc3=O)[nH]c2c1,?

# (further entries)
SMILES,miR-21 reporter
O=S(=O)(Nc1cccc(-c2ccc(N3CCOCC3)nn2)c1)c1ccccc1C(F)(F)F,-36%
CCOc1ccc(C(=O)Nc2ccc(-c3nc4cc(C)ccc4o3)cc2)cc1,-26%
COc1cc(-c2ccno2)ccc1S(=O)(=O)N1CCN(c2ccc(F)cc2)CC1,10%
CCn1cc2nc(SCC(=O)Nc3ccccc3F)n(Cc3ccc(C)cc3)c(=O)c2n1,4%
COc1ccc(C(CC(=O)Nc2ccc(F)c(Cl)c2)N2Cc3ccccc3C2=O)cc1OC (stereo not drawn),-1%
COc1cc(Cl)c(NC(=O)C(NS(=O)(=O)c2cccs2)C(C)C)c(OC)c1 (stereo not drawn),-13%
CCN1C(=O)c2ccccc2S(=O)c2ccc(C(=O)NCc3ccc(F)cc3)cc21 (stereo not drawn),-12%
CC1=C(C(=O)Nc2ccccc2C)C(c2cccnc2)n2nc(SCc3ccccc3)nc2N1 (stereo not drawn),-1%
COc1ccc(CCNC(=O)CCCn2c(=O)c3ccccc3n(CC(=O)Nc3ccccc3C)c2=O)cc1OC,0%
CCOC(=O)c1c(NC(=O)/C=C/c2ccc(OCC)cc2)sc2c1CCCC2,-2%
CCOC(=O)Cn1cnc2onc(-c3ccc(F)cc3)c2c1=O,0%
COc1ccc(Nc2nc3ccccc3nc2NS(=O)(=O)c2ccc(Cl)cc2)cc1OC,2%
CCOc1ccc(NC(=O)CCc2c(C)nc3cc(-c4ccc(Cl)cc4)nn3c2C)cc1,28%
COC(=O)c1c(NC(C)=O)c2c3c(sc2n1Cc1cc(C)ccc1C)CCCC3,2%
COc1ccc2ncc3c(-c4ccc(C)c(C)c4)nn(CC(=O)NC4CCCCC4)c3c2c1,0%
CC(C)Nc1ccc(-c2nc(-c3ccncc3)no2)cc1[N+](=O)[O-],-1%
Cc1cccc(-c2noc(-c3ccc(NCc4cccnc4)c([N+](=O)[O-])c3)n2)c1,-32%
CN1C(C(=O)c2ccccc2)=C(NC(=O)c2ccc(F)cc2)c2ccccc2S1(=O)=O,14%
COc1ccc(CNC(=O)c2ccc(Cn3c(=O)c4cccn4c4cccnc43)cc2)c(OC)c1,-4%
Cc1cc2oc(C(=O)Nc3sc4c(c3C(=O)NCc3ccccc3)CCCC4)cc(=O)c2cc1C,5%
Cc1ccc(CSc2nc3cccnc3n2Cc2ccc(C(=O)NC3CCCCC3)cc2)cc1,-17%
CCc1cccc(N2C(=O)CS(=O)(=O)C23C(=O)N(Cc2ccccc2)c2ccc(C)cc23)c1 (stereo not drawn),-4%

# These rows are one share of the data, so the mix of outcomes need not match the whole.
